HNF4A DNA FP: change in binding of human HNF4 alpha to DNA; P41235; HNF4a-FITC DNA binding, fluorescence polarization, 1 h; activity change, % at 10 µM; 0.3% of 360,000 active; in the data active means activity change above about 30%, passing the limit was not always enough;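 further: controls were the assay level and a saturating level of protein; the project sought stronger binding though the title names inhibitors; some compounds called inactive have numbers as strong as hits; positive values seem to mean higher polarization but the record does not say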
Target sequence (P41235 whole entry, looked up): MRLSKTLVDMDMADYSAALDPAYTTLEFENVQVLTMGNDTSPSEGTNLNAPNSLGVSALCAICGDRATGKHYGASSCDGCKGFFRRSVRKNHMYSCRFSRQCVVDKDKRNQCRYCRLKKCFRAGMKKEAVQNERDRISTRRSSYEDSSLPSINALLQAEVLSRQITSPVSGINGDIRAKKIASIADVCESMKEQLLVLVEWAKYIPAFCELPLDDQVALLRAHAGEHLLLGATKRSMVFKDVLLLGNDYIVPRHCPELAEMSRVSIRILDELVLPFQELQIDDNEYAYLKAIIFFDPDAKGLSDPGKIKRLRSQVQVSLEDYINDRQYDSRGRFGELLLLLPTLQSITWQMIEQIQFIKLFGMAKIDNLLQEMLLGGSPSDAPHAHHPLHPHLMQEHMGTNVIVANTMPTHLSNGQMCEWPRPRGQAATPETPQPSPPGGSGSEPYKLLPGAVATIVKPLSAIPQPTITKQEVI
RanGTP-Impb inh: inhibitors of RanGTP-importin-beta interaction, primary screen, biochemical, FRET, CFP-Ran, YFP-importin-beta, homogeneous. 1.1% of 300,000 active. cell-free CFP-Ran/YFP-importin-beta FRET ratio. inhibition, % (test concentration not listed). AID 2216;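 active means most replicates above 15%; inconclusive means exactly half above 15%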;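 further: 0% = DMSO wells and 100% = Ran loaded with GDP instead of GTP; wells of about 40 µL received 100 nL stock; the first replicate is given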
Active calls of the source: *; ? = inconclusive.

SMILES	HNF4A DNA FP	RanGTP-Impb inh
Cc1ccc(Cl)cc1-c1ccc(/C=N/n2cnnc2)o1	-2.9	-1.6
COc1cccc(NCc2cc(=O)oc3cc(-c4ccccc4)c(O)cc23)c1	1.7	-5.4
O=c1c2c3c(sc2n2cnnc2n1Cc1ccccc1)CN(Cc1ccccc1)CC3	2.3	0.5
CCNC(=S)N/N=C/c1cn(Cc2ccccc2F)c2ccccc12	-1.9	2.9
S=C(NCCc1ccccc1)N/N=C/c1c(Cl)cccc1Cl	-2.2	-0.2
COc1ccc(C(=O)N/N=c2\oc3ccccc3cc2C(=O)NCc2ccccc2)cc1	-6.4	2.9
CN(C)c1ccc(/C=N/NC(=O)C(=O)/C=C2\NC3(CCCC3)Cc3ccccc32)cc1	15.1	3.3
C=CCN1C(=O)CS/C1=N\S(=O)(=O)c1ccc(Cl)cc1	-0.1	-4.7
O=C1OC(OC(=O)c2ccccc2Br)C(N2CCOCC2)=C1Cl (configuration not stated)	1.0	-3.3
Cc1cc(C)n(CC(=O)N/N=C/c2cccc([N+](=O)[O-])c2)n1	0.6	1.3
O=C(N/N=C/c1cccnc1)c1cccc(NC(=O)c2ccc(Cl)cc2)c1	89.6*	0.0
CCOc1cc([N+](=O)[O-])cc(/C=N/NC(=O)c2c(-c3ccccc3)noc2C)c1O	4.8	-1.5
CCN(/N=C/c1ccccc1)c1cc(=O)n(C)c(=O)[nH]1	-0.6	-3.8
O=C(N/N=C/c1cccc(Br)c1)c1ccc(Cn2cc(Br)cn2)o1	-1.6	1.2
O=C(N/N=C\c1ccc(-c2ccccc2[N+](=O)[O-])o1)C1COc2ccccc2O1 (configuration not stated)	1.7	1.2
O=C(CN1C(=O)/C(=C\c2ccc(F)cc2)Oc2ccccc21)NCc1ccco1	-1.7	0.5
O=[N+]([O-])c1ccccc1S(=O)(=O)Oc1ccc(/C=N/n2cnnc2)cc1	-1.6	-1.5
CCC1(C(=O)c2ccc(Cl)cc2)C2c3ccccc3OC(=O)C21C(=O)Nc1ccccc1 (configuration not stated)	-1.9	-4.7
O=C(NC(=S)N1CCOCC1)c1ccc([N+](=O)[O-])cc1	-4.5	0.3
S=c1[nH]nc(C2CCCCC2)n1/N=C/C(Cl)=C\c1ccccc1	-0.7	3.8
CCCCNc1c(-c2ccc(OC)c(Sc3ccc(OC)cc3)c2)nc2ccccn12	-2.1	-0.6
Cc1ccc(-n2c(SCC(=O)N/N=C/C=C/c3ccccc3[N+](=O)[O-])nc3ccccc3c2=O)cc1	0.1	-2.7
C/C(=N\NC(=O)c1ccc(Cn2cc(Br)cn2)o1)c1cccc(NC(=O)C(C)C)c1	-1.6	2.0
Cc1ccc(-c2nc(CS(=O)CC(=O)NCc3ccc4c(c3)OCO4)c(C)o2)cc1 (configuration not stated)	1.9	2.2
CCC(CC)NC(=O)CON=C1c2ccccc2-c2ccccc21	0.4	4.2
Cc1ccc(-n2nnnc2SCC(=O)Nc2ncc(Cc3ccccc3Cl)s2)cc1	-1.0	8.3
O=C(N/N=C\c1cc(Cl)ccc1O)c1ccc(S(=O)(=O)N2CCCCC2)cc1	-3.6	-2.0
O=C(N/N=C/c1ccc2c(c1)OCO2)c1ccc(Br)o1	-1.9	1.1
COc1ccc(-n2c(C)cc(/C=N/Nc3nnc(C)n3N)c2C)cc1	0.8	0.2
CC/C(=N\NC(=O)Nc1ccccc1)c1ccccc1	-1.7	0.3
Cc1nc2c(cc1C(=O)N/N=C/c1ccc([N+](=O)[O-])cc1)c(=O)n(C)c(=O)n2C	2.5	-4.5
O=C(N/N=C\c1ccc(-c2ccc([N+](=O)[O-])cc2)o1)c1ccc2c(c1)OCO2	14.7	-7.4
CCCCNC(=S)N/N=C/c1cc(C)ccc1C	-0.5	-0.2
O=C(O)c1ccc(-c2ccc(-c3ccccc3)cc2)s1	-2.1	-0.4
CC(C)(C)c1cc(C(=O)N/N=C/c2ccco2)n[nH]1	2.0	2.2
O=C(CNC(=O)c1cccc(OC(F)F)c1)OCc1cc(=O)n2cc(Br)ccc2n1	-22.7	2.2
Cc1nn(-c2ccccc2)c(Cl)c1/C=N\NC(=O)c1cncc(Br)c1	1.3	?
N#Cc1ccc(N2Cc3ccccc3/C2=N/C(=O)Nc2ccc(Cl)cc2)cc1	3.3	-3.4
COc1cc(/C=N/NC(=O)CN(Cc2ccco2)S(=O)(=O)c2ccccc2)ccc1O	0.5	-0.4
O=C(N/N=C/c1c(O)ccc2ccccc12)c1cccc(C(F)(F)F)c1	91.8*	-1.2
COC(=O)c1cccc(Cn2c(Cl)c(/C=N/Nc3ccccc3C)sc2=O)c1	14.1	-2.3
CCCCN(CCCC)CC(O)CN(c1cc([N+](=O)[O-])ccc1OC)S(=O)(=O)c1ccccc1 (configuration not stated)	-2.1	5.6
Cc1ccc(NC(=S)N2CCN(Cc3ccc4c(c3)OCO4)CC2)c(C)c1	-0.9	-1.8
Cc1ccc(/C=N/NC(=O)c2nn(C)cc2Cl)cc1	3.6	-1.3
O=C(Nc1ccccc1N1CCOCC1)C1CCN(S(=O)(=O)c2ccc(F)cc2)CC1	2.2	-1.7
CCOC(=O)N/N=C/c1cn(Cc2ccccc2Cl)c2ccccc12	1.6	1.1
C/C(Cc1ccccc1)=N\NC(=O)c1cccnc1	0.9	-0.5
CCOC(=O)c1c(-c2ccc(OC)cc2)csc1/N=C/C1=C(O)CCCC1=O	3.7	-3.0
COc1ccc2cnnc(SCC(=O)Nc3ccc(C(=O)O)cc3)c2c1OC	0.5	-1.6
CN(C)CCCO/N=C(\c1ccccc1)c1ccncc1	-3.8	-2.4
COc1ccc(/C=N/NC(=O)C(N)=O)c(OC)c1OC	4.4	-2.3
Cc1cc(F)ccc1NC(=O)c1ccc(NS(=O)(=O)c2cc(C(C)(C)C)ccc2C)cc1	-1.2	-0.7
Cc1coc2cc3oc(=O)cc(C)c3cc12	0.2	0.3
Cc1ccc(-c2c(C(=O)N/N=C/c3cccs3)nnn2-c2nonc2N)cc1	-4.7	?
S=C(Nc1cccnc1)Nc1ccccn1	0.7	-1.7
O=C(N/N=C/c1c[nH]c2ccccc12)C1CC1(c1ccccc1)c1ccccc1 (configuration not stated)	2.2	-0.2
Cc1ccc(-c2nnc(Nc3ccc4c(c3)OCO4)c3ccccc23)cc1S(=O)(=O)NC(C)C	2.0	-1.7
COc1ccccc1/C=N/NC(=O)c1[nH]c(C)c(C(=O)N/N=C/c2ccccc2OC)c1C	-5.0	8.0
Cc1ccc(NS(=O)(=O)c2cccc(C(=O)N/N=C/c3c(C)nn(-c4ccccc4)c3N3CCCC3)c2)c(C)c1	-0.9	-3.4
O=C(N/N=C/c1c[nH]c2ccccc12)c1sc2ccccc2c1Cl	1.3	-1.0

A second format for 4 compounds above:
> C/C(Cc1ccccc1)=N\NC(=O)c1cccnc1
  HNF4A DNA FP = 0.9	RanGTP-Impb inh = -0.5

> CCOC(=O)c1c(-c2ccc(OC)cc2)csc1/N=C/C1=C(O)CCCC1=O
  HNF4A DNA FP = 3.7	RanGTP-Impb inh = -3.0

> COc1ccc2cnnc(SCC(=O)Nc3ccc(C(=O)O)cc3)c2c1OC
  HNF4A DNA FP = 0.5	RanGTP-Impb inh = -1.6

> CN(C)CCCO/N=C(\c1ccccc1)c1ccncc1
  HNF4A DNA FP = -3.8	RanGTP-Impb inh = -2.4

(listing goes on)
SMILES	HNF4A DNA FP	RanGTP-Impb inh
CCCCCn1c(N2CCC(Cc3ccccc3)CC2)nc2c1c(=O)[nH]c(=O)n2C	1.0	?
Cc1[nH]c2ccc(F)cc2c1CCNC(=O)C1CCCCC1C(=O)OCC(F)(F)F (configuration not stated)	-2.0	-4.0
CC(/C=N/NC(=O)CSc1nnc(SCc2ccccc2)s1)=C\c1ccco1	-3.0	-1.7
CC1Oc2ccccc2C=C1/C=N/NC(=O)c1ccccc1 (configuration not stated)	2.5	-2.7
O=C(N/N=C/c1cccs1)C(=O)Nc1cccc(Cl)c1	0.6	-0.4
CC(C)(O)c1[nH]c2cc(F)ccc2c1C(C)(C)O	4.1	?
CCN(CC)c1ccc(/C=N/Nc2nc3ccccc3[nH]2)cc1	0.2	6.2
O=C(N/N=C/c1ccco1)C1CCCC1	-7.2	3.0
O=[N+]([O-])c1cc(/C=N/n2c(-c3cccnc3)n[nH]c2=S)ccc1Cl	1.2	-7.7
COc1ccc(/C=N/NC(=O)C[n+]2ccccc2)c(OC)c1OC	1.8	-1.6
CCc1nnc(NS(=O)(=O)c2ccc(NC(=S)NC(=O)/C=C/c3ccc(OC)cc3)cc2)s1	-5.8	-2.1
COC(=O)c1c(C)cc(O)c(C=O)c1O	-4.4	-2.7
COC(=O)N/N=C/c1ccc(-c2cccc(Cl)c2)o1	-2.0	-0.2
Cc1ccc2c(c1)cc1c(=O)n(CC(=O)NCc3ccccn3)nc(C)n12	0.1	5.6
Cc1cc(N/N=C\c2ccccc2)nc(-c2ccccc2O)n1	0.1	2.9
CCCCCCCCCC[N+](C)(C)CC/C=C1/c2ccccc2Sc2ccc(Cl)cc21	10.4	9.5
O=C(CSc1n[nH]c(=O)[nH]c1=O)N/N=C/c1ccccc1	3.3	-1.2
Cc1cccc(OCCn2cc(/C=N/NC(=O)c3ccncc3)c3ccccc32)c1	1.2	-2.6
CNC(=S)N/N=C/c1ccc(OCC(=O)Nc2c(C)cc(C)cc2C)c(OC)c1	2.7	0.6
Cc1cc(=O)[nH]c(N/N=C/c2ccccn2)n1	-3.0	0.0

Reprinted from the part before: 2 compounds; new compounds follow.
SMILES	HNF4A DNA FP	RanGTP-Impb inh
CNC(=S)N/N=C/c1ccc(OCC(=O)Nc2c(C)cc(C)cc2C)c(OC)c1	2.7	0.6
Cc1cc(=O)[nH]c(N/N=C/c2ccccn2)n1	-3.0	0.0
Cc1nn(-c2ccccc2)c(N)c1C(c1ccc(C(C)C)cc1)c1c(C)nn(-c2ccccc2)c1N	-1.6	1.9
CC(=O)NC(=S)Nc1ccc(NC(=O)c2cccs2)cc1	-2.4	1.7
COc1ccc(/C=N/NC(=S)NC2CCS(=O)(=O)C2)cc1 (configuration not stated)	0.3	1.0
CC(C)(C)N/N=C/c1cc(Cl)cc([N+](=O)[O-])c1O	-2.9	0.4
Cc1ccc(COc2ccc(/C=N/NC(=O)c3ccc(CN4CCOCC4)cc3)cc2)cc1	2.5	-0.2
COc1ccc(-c2nnc(NC(=O)CSc3ccc(Cl)cc3)s2)cc1OC	-1.1	1.1
CCCCC(=O)Nc1cccc(C(=O)N/N=C/c2ccc(OC)cc2OC)c1	0.0	-0.3
COCCNC(=S)N/N=C(\C)c1ccccc1OC	-0.6	1.7
Cn1nc(N)c2c(-c3ccccc3)c(C#N)c(N)nc21	-4.3	2.9
COc1ccc2nc(/N=C(\N)NC(=O)N3c4ccccc4Sc4ccccc43)nc(C)c2c1	0.2	3.1
COc1cccc(C(=O)N/N=C/C(Br)=C/c2ccccc2)c1	-0.4	1.6
O=C(O)c1cc(N/N=C2/CC(c3ccccc3)Oc3ccccc32)ccc1Cl (configuration not stated)	-5.1	-0.1
Cc1cc(N/N=C/c2cccc(Cl)c2)nc(NCc2ccccc2)n1	-1.1	-0.5
O=C(N/N=C/c1cccc([N+](=O)[O-])c1)c1cnccn1	2.8	-2.0
CCOC(=O)c1c(-c2ccc(F)cc2)csc1NC(=O)c1c(-c2ccccc2)noc1C	0.1	-1.2
Cc1ccccc1NC(=O)/C(C#N)=C/c1ccsc1	-4.9	2.2
COc1cc(/C=N/NC(=O)c2nc(-c3ccccc3)n(-c3ccccc3)n2)ccc1O	1.0	?
COc1ccc(/C=N/Nc2nc(=O)[nH]nc2C)cc1[N+](=O)[O-]	3.8	-0.7
O=C(N/N=C/C1=C(N2CCOCC2)C(=C\c2ccccc2)/CC1)Nc1ccccc1	3.3	-5.4
Cc1cc(C)n(CC(=O)N/N=C/c2ccccn2)n1	1.1	3.3
CCOC(=O)C1=C(C)N=c2s/c(=C3/C(=O)Nc4ccccc43)c(=O)n2C1c1ccc(C)cc1 (configuration not stated)	1.9	-0.3
COc1ccc2nc(C)cc(SCC(=O)N/N=C/c3ccccc3)c2c1	-0.8	1.4
CCOC(=O)N/N=C/c1ccc(OCCSc2ccc(Cl)cc2)c(OC)c1	-0.9	-3.0
Cc1ccc(NC(=O)Cc2ccc([N+](=O)[O-])cc2)c(Br)c1	-0.6	-1.6
Cc1ccc(NC(=O)CCC(=O)N/N=C/c2ccco2)c(C)c1	0.6	7.2
CCC(=O)NC(=S)Nc1ccc(NC(=O)c2cccc([N+](=O)[O-])c2C)cc1	-6.4	1.7
COc1cccc(/C=c2\s/c(=C/C(=O)c3ccc(C)cc3)[nH]c2=O)c1OC	2.0	?
CCCCC1=CC2=C(c3ccco3)C(=O)C(C)(OC(=O)c3ccc(OC)cc3)C(=O)C2=CN1Cc1ccc2c(c1)OCO2 (configuration not stated)	-13.6	-11.9
COC(=O)N/N=C(\C)c1ccc(C)c([N+](=O)[O-])c1	-0.4	-0.1
O=C(Cc1cccs1)N/N=C/c1ccco1	0.6	-0.1
Cc1ccc2nc(C)c(C(=O)N/N=C/c3ccco3)cc2c1	-1.8	2.0
N#Cc1cccc2c1-c1ccccc1/C2=N/NC(N)=S	5.9	-1.1
Cc1cccn2c(=O)c3cc(C#N)c(=N)n(CCCN4CCOCC4)c3nc12	-3.1	184.3*
O=C(CNS(=O)(=O)c1ccccc1)OCC(=O)c1cccc([N+](=O)[O-])c1	0.4	0.0
C/C(=N\NC(=O)Cn1c(C)nc2ccccc21)c1cccs1	-1.8	3.5
COc1ccc(OCC(=O)N/N=C/c2ccsc2)cc1	1.6	2.3
Cc1ccc(/C=N/NC(=O)COc2ccccc2-c2ccccc2)cc1	1.7	5.6

Screening data from PubChem.

An excerpt; rates above refer to the full screens.
